# KCNQ2 inh: KCNQ2 channel blockers in CHO-K1 cells – cell-based, FluxOR thallium flux, B-score, primary screen (AID 2156) | 20 min; hits give low values; only compounds with negative scores are shown here; some inactives read as strong as hits | actives 1.1% (n = 310,000) | B-score at 10 µM | O88943;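 active means fluorescence ratio B-score at most minus 3 library SDs, with starting brightness B-score within 2 library SDs, cut at about -5.5 in these data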
# Target sequence (O88943 whole entry, looked up): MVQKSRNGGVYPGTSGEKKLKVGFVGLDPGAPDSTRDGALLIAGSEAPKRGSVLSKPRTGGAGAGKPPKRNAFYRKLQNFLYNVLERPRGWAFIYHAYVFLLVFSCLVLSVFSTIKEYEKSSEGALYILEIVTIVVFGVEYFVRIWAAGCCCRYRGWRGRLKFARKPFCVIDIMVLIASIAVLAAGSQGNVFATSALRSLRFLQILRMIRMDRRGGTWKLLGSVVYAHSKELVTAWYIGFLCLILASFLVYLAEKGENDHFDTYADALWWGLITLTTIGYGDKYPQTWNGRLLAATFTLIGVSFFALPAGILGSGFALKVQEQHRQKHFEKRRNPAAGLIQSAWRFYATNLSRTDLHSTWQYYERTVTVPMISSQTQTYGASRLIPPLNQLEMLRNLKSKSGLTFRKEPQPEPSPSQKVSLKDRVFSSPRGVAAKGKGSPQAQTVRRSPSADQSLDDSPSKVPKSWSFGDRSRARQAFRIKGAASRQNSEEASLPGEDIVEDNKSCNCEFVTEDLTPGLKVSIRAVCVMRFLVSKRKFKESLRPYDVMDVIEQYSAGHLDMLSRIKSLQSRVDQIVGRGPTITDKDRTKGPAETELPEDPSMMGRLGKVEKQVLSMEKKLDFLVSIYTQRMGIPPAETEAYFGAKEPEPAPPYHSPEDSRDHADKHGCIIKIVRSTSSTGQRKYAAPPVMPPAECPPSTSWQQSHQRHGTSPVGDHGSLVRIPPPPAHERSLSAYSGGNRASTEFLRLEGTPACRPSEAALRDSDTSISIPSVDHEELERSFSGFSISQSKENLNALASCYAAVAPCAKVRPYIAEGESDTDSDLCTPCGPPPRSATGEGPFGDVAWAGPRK
# KCNQ2 inh baseline: also measured in KCNQ2 inh; calls as there; B-score; measured here: initial fluorescence intensity artifact check;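 brightness before thallium and not channel activity; 0 = typical well and far values either way flag optical interference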
# * = called active by the depositor; i = inactive.
SMILES,KCNQ2 inh,KCNQ2 inh baseline
COC(=O)[C@H](C)NC(=O)NCCC1=CCCCC1,i,0.28
CCCC(=O)Oc1cccc(C2NC(=O)c3ccccc3O2)c1 (configuration not stated),i,0.74
CCCCCC(C)NC(=O)CN1C(=O)NC(C)(c2ccc3ccccc3c2)C1=O (configuration not stated),i,-0.04
O=C(NCCCn1ccnc1)c1cc(C2CC2)on1,i,1.88
COc1ccc(NC(=O)O/N=C/c2ccc(N(C)C)cc2)cc1,i,0.29
COc1cc(C(F)(F)F)nc2c(Br)c(C(C)(C)C)nn12,i,-0.81
CCN(Cc1ccccc1)Cc1ccc(OCc2ccccc2)c(OC)c1,i,-0.21
Cc1ccc(S(=O)(=O)NC(=O)N2CCCN(Cc3ccc(F)cc3)CC2)cc1,i,-0.35
CCN(CC)S(=O)(=O)c1ccc(C)c(NC(=O)COc2ccc3c(C)cc(=O)oc3c2)c1,i,-1.09
COc1cccc(-n2c(SCC(=O)Nc3cc(C)on3)nc3ccccc3c2=O)c1,i,-1.46
CCOc1ccc(NC(=O)CN(C)C(=O)CCNC(=O)c2ccccc2Cl)cc1OCC,i,-0.36
COc1cc(OC)c(NC(=O)CCNC(=O)Cn2ccc3ccccc3c2=O)cc1Cl,i,-0.34
CC(C)CCNC(=O)CCn1nc(-c2ccccc2)ccc1=O,i,1.33
Cc1ccc(NC(=O)C2CCCN2C(=O)Oc2ccccc2)cc1 (configuration not stated),i,0.53
CC(C)(C)n1cnc2cc(NCc3ccc(Br)cc3)ccc21,i,0.37
CC(=O)N1CCOc2ccc(S(=O)(=O)Nc3cccc(C)c3)cc21,i,1.47
CCc1ccc(NC(=O)CSc2nc(=O)n(CCCN3CCOCC3)c3c2CCCC3)cc1,i,0.95
Cc1cccc(NS(=O)(=O)c2cc(C(=O)N3CCCC3)ccc2Cl)c1,i,1.97
O=C(CN1CCc2ccccc2C1)Nc1ccccc1Cl,i,-0.24
COc1ccc(C(=O)/C=C/c2cc(OC)c(O)c(OC)c2)c(F)c1,i,-0.06
O=C(Nc1ccnn1C1CCN(C(=O)c2ccc(C(F)(F)F)cc2)CC1)C1CC1,i,0.02
Cc1ccc(-c2sc(-c3cccnc3)nc2CC(=O)O)cc1,i,0.24
COc1ccc(-c2csc3ncnc(N4CCN(S(=O)(=O)c5ccc(Cl)s5)CC4)c23)cc1,-7.55*,0.74*
CCOC(=O)c1sc(NC(=O)Nc2ccccc2F)nc1C,i,-0.4
COc1ccc(-c2noc(COc3ccc4ccccc4c3Br)n2)cc1OC,i,4.3
O=C(/C=C/c1ccco1)Oc1cccc2cccnc12,i,-0.57
Cc1nc2ccccn2c1C(=O)NC1CCCCC1,i,3.54
CC(C)OCCCNC(=O)c1ccc(NC(=O)C2CCCO2)cc1 (configuration not stated),i,-0.39
COc1ccc(NC(=O)CSc2nnc(Cn3c(=O)sc4ccccc43)n2C)c(OC)c1,i,-0.48
COC(=O)Cc1cc(=O)n2[nH]c(C)c(-c3ccccc3)c2n1,i,-1.04
COc1ccc(-c2ocnc2C(=O)N2CCN(C(c3ccccc3)c3ccccc3)CC2)cc1,i,1.37
O=C(c1cccc([N+](=O)[O-])c1)N(c1ccccn1)c1ccccn1,i,1.49
CCN1/C(=C\c2ccc3ccccc3[n+]2CC)Sc2cc(C)ccc21,i,46
CCCCNC(=O)c1ccc(NS(=O)(=O)c2ccc3[nH]c(=O)[nH]c3c2)cc1,i,0.37
COc1ccccc1N1C(=O)[C@@H]2[C@H](C1=O)[C@H](C(=O)c1ccc(OC(C)=O)cc1)N1N=CC=C[C@@H]21,i,-1.45
Cc1ccc(NC(=O)CN(C)C(=O)CN2C(=O)NC(C)(c3ccccc3)C2=O)cc1 (configuration not stated),i,-0.96
COC(=O)Cc1c(C)nc2nc(-c3ccccc3)[nH]n2c1=O,i,1.97
COc1cc(-c2nnco2)cc(OC)c1OC,i,0.55
Clc1nc(-c2ccccc2)cc(-c2ccc(Br)cc2)n1,i,0.06
COc1ccc(C(CNCC(=O)Nc2ccccc2F)N(C)C)cc1 (configuration not stated),i,0.11
O=C(NC(c1ccccc1)c1ccccc1)C1(c2cccs2)CCOCC1,i,0.29
Cc1cc(-c2onc3ccc(Cl)cc23)ccc1O,i,-3.01
COc1ccc(C(=O)NC2CC(C)(C)NC(C)(C)C2)cc1OC,i,0.4
CCc1c(O)nc(SCC(=O)Nc2cc(C)on2)n(-c2ccccc2)c1=O,i,-0.66
Brc1c(C[n+]2ccccc2)nc2ccccn12,i,0.88
Cc1ccc(S(=O)(=O)N(C)CCCC(=O)NC(C)(C)CO)cc1,i,-0.16
CCc1ccccc1N=C1S/C(=C/c2ccccc2OCC(=O)N2CCOCC2)C(=O)N1C,i,-0.69
COc1cc(/C=N/N=C2/NC(=O)C(CC(=O)O)S2)ccc1OCc1cccc(Cl)c1 (configuration not stated),i,-1.42
C=CCn1c(SCC(=O)N(C)C)nc2cc(C(=O)O)ccc2c1=O,i,-0.81
CCN(c1ccc(OC)cc1)S(=O)(=O)c1csc(C(=O)N2CCCC2)c1,i,2.24
C/C=C/C(=O)N1c2ccc(C)cc2C(C)=CC1(C)C,i,-1.52
COc1ccc(OC)c(NC(=S)NN2CCOCC2)c1,i,-1.05
CCCNC(=O)c1ccc(COc2ccc(C(C)(C)C)cc2)o1,i,-1.95
CN(C(=O)c1cc2ccccc2oc1=O)C1(C)CCS(=O)(=O)C1 (configuration not stated),i,-0.87
Cc1ccc(-n2c(SCC3CCCCO3)nnc2-c2ccco2)cc1 (configuration not stated),i,1.41
O=C(COC(=O)c1cc(S(=O)(=O)N2CCOCC2)ccc1F)c1ccc[nH]1,i,0.63
COCCn1c(N)c(N(Cc2ccccc2)C(=O)c2oc3ccccc3c2C)c(=O)[nH]c1=O,i,0.14
CCOC(=O)NN=C1CCC(c2ccccc2)CC1 (configuration not stated),i,-0.73
Cc1c(Cl)c([N+](=O)[O-])nn1CCCC(=O)Nc1ccc(Cl)cc1Cl,i,0.65
CSCCCNC(=O)c1ccc(OC2CCN(CCc3ccccc3)CC2)cc1,i,1.05
# (continued)
SMILES,KCNQ2 inh,KCNQ2 inh baseline
CCc1ccc(C(=O)COC(=O)c2cnccn2)cc1,i,0.34
CCOC(=O)C1CCN(C(=O)COC(=O)c2ccc(=O)n(Cc3ccccc3)n2)CC1,i,-0.94
COc1ccc(OC)c(CNC(=O)C2CCCN(c3nc4ccccc4o3)C2)c1 (configuration not stated),i,-1.69
Cc1ccc(NC2(c3nnnn3-c3c(C)cccc3C)CCCCC2)cc1,i,-0.67
CCCCOc1ccc(OCCNC(=O)c2ccco2)cc1,i,0.91
COc1ccc(OCCCCOc2ccccc2Cl)cc1,i,1.44
CCC(NC(=O)c1ccccc1O)c1ccccc1 (configuration not stated),i,1.29
O=C(Nc1ccccc1Cc1ccccc1)c1ccc2c(c1)SC1=NS(=O)(=O)CCN12,i,-0.48
O=C(NCC1OCCc2ccccc21)c1cc(COc2ccc(F)cc2Cl)on1 (configuration not stated),i,-0.45
Cc1onc(-c2ccccc2)c1NC(=O)N(CCC#N)Cc1ccccc1,i,1.59
COc1ccc(/C=C2\SC(=O)N(CCc3nnc(N)s3)C2=O)cc1,i,-0.79
O=S(=O)(Nc1cccc(S(=O)(=O)N2CCCCCC2)c1)c1ccccc1,i,0.37
Cn1c(=O)n(C)c2cc(NC(=O)CSc3nnc(-c4ccccc4O)n3-c3ccccc3)ccc21,i,0.29
Cc1ccc(S(=O)(=O)N/N=C/c2c(C)nn(-c3ccccc3)c2C)cc1,i,-0.05
N#CC(C#N)=Cc1cccn1-c1ccc(C(=O)O)cc1,i,-0.25
Brc1ccccc1Cn1c(-c2cscn2)nc2ccccc21,i,0.22
O=C(CSc1ccccc1C(=O)O)NCC1CCCCC1,i,0.57
CC[C@H](C)NC(=O)CCCCCn1c(=S)[nH]c2c([nH]c3ccc(OC)cc32)c1=O,i,-0.45
Cc1cc(C)c2c(N)c(C(=O)NN3CC(=O)N(c4cccc(Cl)c4)CC3=O)sc2n1,i,-2.1
Cc1ccc(N(CN2C(=O)c3ccccc3C2=O)C(=O)c2ccc([N+](=O)[O-])cc2[N+](=O)[O-])cc1,i,0.45
O=C(N/N=C/c1cccs1)c1ccc2ccccc2c1,i,0.79
CC(C)C[C@H](NC(=O)c1[nH]cnc1C(=O)N[C@@H](C)c1ccccc1)C(=O)OC(C)(C)C,i,-4
CC(OC(=O)c1ccc(S(=O)(=O)NCc2ccco2)cc1)C(=O)Nc1ccc(Cl)cn1 (configuration not stated),i,2.19
CC(=O)c1nn(-c2ccc(Br)cc2)cc1C(=O)c1ccco1,i,0.02
CCc1c(C(=O)Nc2ccc(C)c(C)c2)[nH]c(C)c1C(C)=O,i,0.01
CCN(Cc1ccccc1)C(=O)CN1C(=O)COc2ccc(S(=O)(=O)N3CCCCCC3)cc21,i,0.64
O=c1ccc(-c2ccc(S(=O)(=O)Nc3ccccc3Cl)o2)n[nH]1,i,-0.08
O=C(Cc1ccccc1F)NNC(=O)c1ccncc1,i,0.56
CCc1c(O)nc(SCC(=O)N2CCc3cc(OC)c(OC)cc3[C@@H]2C)[nH]c1=O,i,-0.8
CCC(C(=O)OCC(=O)Nc1cccc(OC)c1)c1ccccc1 (configuration not stated),i,1.05
Cc1nc(-c2ccc(F)cc2)c(CC(=O)Nc2ccc(C)c(S(=O)(=O)N3CCOCC3)c2)s1,i,0.31
CCc1cc(C(=O)Cc2cnn(-c3ccccc3)c2)c(O)cc1O,i,-0.08
Cc1cccc(NC(=O)c2ccc3c(c2)C(=O)N(c2ccccn2)C3=O)c1C,i,-0.04
CCc1cc2c(=O)nc3n(c2s1)Cc1ccccc1/C3=C(/O)c1ccccc1Cl,i,1.92
O=C(CCc1ccc(Oc2cc([N+](=O)[O-])cc([N+](=O)[O-])c2)cc1)N1CCCCC1,i,0.57
COc1ccc(C(=O)Nc2cccc(-c3nc4ncccc4o3)c2C)cc1,i,-0.32
O=C(CC(NC(=O)c1ccccc1Cl)c1ccccc1)NC1=NCCS1 (configuration not stated),i,0.26
CC(=O)OC(C(=O)NCc1ccc(F)cc1)c1ccccn1 (configuration not stated),i,0.06
CCn1nc(C)c(CNC(=O)c2cc(COc3ccccc3SC)on2)c1C,i,0.93
Cc1cc(C)cc(-n2ncc3c2CCCC3NC(=O)CCN2Cc3ccccc3C2=O)c1 (configuration not stated),i,0.02

# An excerpt of these results, with two lines to a compound.
# Values in the order – KCNQ2 inh	KCNQ2 inh baseline
CC(=O)c1nn(-c2ccc(Br)cc2)cc1C(=O)c1ccco1
→ i	0.02
CCc1c(C(=O)Nc2ccc(C)c(C)c2)[nH]c(C)c1C(C)=O
→ i	0.01
CCN(Cc1ccccc1)C(=O)CN1C(=O)COc2ccc(S(=O)(=O)N3CCCCCC3)cc21
→ i	0.64
O=c1ccc(-c2ccc(S(=O)(=O)Nc3ccccc3Cl)o2)n[nH]1
→ i	-0.08
O=C(Cc1ccccc1F)NNC(=O)c1ccncc1
→ i	0.56
CCc1c(O)nc(SCC(=O)N2CCc3cc(OC)c(OC)cc3[C@@H]2C)[nH]c1=O
→ i	-0.8
CCC(C(=O)OCC(=O)Nc1cccc(OC)c1)c1ccccc1 (configuration not stated)
→ i	1.05
Cc1nc(-c2ccc(F)cc2)c(CC(=O)Nc2ccc(C)c(S(=O)(=O)N3CCOCC3)c2)s1
→ i	0.31
CCc1cc(C(=O)Cc2cnn(-c3ccccc3)c2)c(O)cc1O
→ i	-0.08
Cc1cccc(NC(=O)c2ccc3c(c2)C(=O)N(c2ccccn2)C3=O)c1C
→ i	-0.04
CCc1cc2c(=O)nc3n(c2s1)Cc1ccccc1/C3=C(/O)c1ccccc1Cl
→ i	1.92
O=C(CCc1ccc(Oc2cc([N+](=O)[O-])cc([N+](=O)[O-])c2)cc1)N1CCCCC1
→ i	0.57
COc1ccc(C(=O)Nc2cccc(-c3nc4ncccc4o3)c2C)cc1
→ i	-0.32
O=C(CC(NC(=O)c1ccccc1Cl)c1ccccc1)NC1=NCCS1 (configuration not stated)
→ i	0.26
CC(=O)OC(C(=O)NCc1ccc(F)cc1)c1ccccn1 (configuration not stated)
→ i	0.06

# The list continues:
SMILES,KCNQ2 inh,KCNQ2 inh baseline
CC(=O)c1ccc(NC(=O)C2(c3ccccc3)CCOCC2)cc1,i,0.02
O=C(Cn1cnc2cc([N+](=O)[O-])ccc2c1=O)NC(c1ccccc1)c1ccccc1,i,-0.56
COc1cc(C)nn1-c1ccc(Cl)cc1,i,-1.14
N#CC1=C2SCN(Cc3ccccc3)CN2C(=O)CC1c1cccs1 (configuration not stated),i,0.91
COc1ccc(C(=O)C2CCN(C(=O)c3ccco3)CC2)cc1,i,-0.83
COc1ccc2[nH]c3c(c2c1)CCN1C(=O)N([C@@H](C)C(=O)NCc2ccccc2OC)C(=O)[C@]31C,i,0.11
Cc1cc(NC(=O)CSc2nnc(C3CC3)n2C)no1,i,1.74
CS(=O)(=O)N1CCC(C(=O)NCC2CCCO2)CC1 (configuration not stated),i,0.13
COc1ccc(C(CC(=O)N2CCOCC2)C(C)C)cc1 (configuration not stated),i,0.68
CC(=NCC1CCCO1)C1=C(O)CC(C)(C)CC1=O (configuration not stated),i,1.25
COc1ccc(N2C(=O)c3cccc4cc(Br)cc(c34)C2=O)cc1,i,0.16
CCCN(CCC)S(=O)(=O)c1ccc(C(=O)N2CCCc3ccccc32)cc1,i,0.73
CCNc1nc(NC(C)C)nc(N(C#N)C(C)C(=O)N(C)C)n1 (configuration not stated),i,-0.39
O=C(CSCc1ccc(Cl)cc1)N/N=C/c1ccc(Cl)cc1Cl,i,-2.44
CC(O)Cc1cn(CC(=O)N2CCN(C(=O)OC(C)(C)C)CC2)nn1 (configuration not stated),i,1.58
COc1ccc(C(CNC(=O)c2ccc(NS(=O)(=O)c3ccc(F)c(C)c3)cc2)N2CCOCC2)cc1 (configuration not stated),i,-0.05
CC1Cn2c(nnc2C23CC4CC(CC(C4)C2)C3)S1 (configuration not stated),i,-0.21
O=C(CSc1nnc(-c2ccc(F)cc2)o1)NC1CCCC1,i,0.57
CC1=CC(=O)N(c2ccc(C)cc2)C1c1ccc(Cl)cc1 (configuration not stated),i,-1.12
COc1ccc(Cl)cc1NC(=O)CSc1nnc(CNC(=O)c2ccco2)o1,i,0.2
O=C(CCc1ccc(O)c(O)c1)NNC(=S)NCCc1ccccc1,i,0.15

# Screens: PubChem BioAssay, Johns Hopkins Ion Channel Center

# The list is partial; the hit share may differ from the screen's.
